High-throughput results from PubChem BioAssay.
AF4-AF9 inh = MLL-AF4/AF9 protein interaction inhibition; inhibition, % at 10 µM; AlphaScreen, biotin-AF4 peptide binding to FLAG-AF9; 350,000 tested, 0.47% active; P42568;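 active = every replicate reaching a set inhibition limit, whatever the replicate mean, cut at about 25% in these data; inconclusive = mean inhibition reaches that limit but some replicates miss it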;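 also: 0% = plate neutral control median and 100% = total signal loss; the record names both 10 and 1 µM as test concentration; the first replicate is given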
Target sequence (P42568 whole entry, looked up): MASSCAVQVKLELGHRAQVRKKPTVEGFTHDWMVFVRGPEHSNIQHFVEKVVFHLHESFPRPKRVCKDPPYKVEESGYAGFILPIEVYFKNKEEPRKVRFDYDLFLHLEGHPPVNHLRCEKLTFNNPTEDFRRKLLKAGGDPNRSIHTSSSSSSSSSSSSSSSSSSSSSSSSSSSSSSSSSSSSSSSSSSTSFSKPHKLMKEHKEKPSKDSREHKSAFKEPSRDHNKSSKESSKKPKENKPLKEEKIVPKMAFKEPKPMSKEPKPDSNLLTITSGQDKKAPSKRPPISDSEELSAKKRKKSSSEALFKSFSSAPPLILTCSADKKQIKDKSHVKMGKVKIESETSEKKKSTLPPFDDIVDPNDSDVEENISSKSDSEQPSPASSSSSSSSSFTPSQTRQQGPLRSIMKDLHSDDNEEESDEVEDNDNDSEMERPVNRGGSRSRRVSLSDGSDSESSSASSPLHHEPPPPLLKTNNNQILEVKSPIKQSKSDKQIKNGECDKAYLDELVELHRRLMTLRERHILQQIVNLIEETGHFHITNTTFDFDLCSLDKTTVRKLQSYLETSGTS
T cruzi inh = blocks replication of Trypanosoma cruzi; T. cruzi beta-gal in NIH3T3, luminescence, 90 h; AID 1885; inhibition, % (no concentration beside the values); 300,000 tested, 1.4% active;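 active = mean inhibition across valid replicates above about 55%, limit read from the data; inconclusive = mean below that limit but half or more replicates reach it; inactive = mean below it, under half of replicates reach it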;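 also: signal also drops with host cell toxicity which is not excluded here; 0% = plate median of DMSO wells and 100% = zero luminescence signal; higher percent means less beta-gal luminescence so fewer parasites; stock transfer was 50 nL into about 50 µL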
Beta cell apopt = blocks beta cell apoptosis; INS-1E cytokine-induced death, ATP luminescence, 48 h; percent of positive-control rescue, neutral wells zero; protection from apoptosis, % (test concentration not listed); 300,000 tested, 0.8% active; AID 435005;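 active = all replicates at 75% or more, or half of them and the mean; inconclusive = half reach 75% but not the mean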;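 also: 0% = cytokine-treated negative control wells and 100% = positive control rescue; higher means more ATP so stronger rescue from cytokine killing; wells of about 40 µL received 100 nL stock; the first replicate is given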
RanGTP-Imp inh = disruptors of Ran-importin-beta complex formation – biochemical, FRET, CFP-Ran, YFP-importin-beta, homogeneous, primary screen; inhibition, % (no concentration beside the values); cell-free CFP-Ran/YFP-importin-beta FRET ratio; 300,000 tested, 1.1% active;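 active = most replicates above 15%; inconclusive = exactly half above 15%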;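 also: 0% = DMSO wells and 100% = Ran loaded with GDP instead of GTP; wells of about 40 µL received 100 nL stock; the first replicate is given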
Ecoli rRNA inh = selective bacterial rRNA inhibition in E. coli; E. coli WT GFP vs humanized-ribosome RFP mutants, fluorescence, 24 h; active compounds read low; DMSO median 0, no signal -100; GFP signal change (wild-type ribosome), % (no concentration beside the values); 350,000 tested, 1.6% active; AID 720706;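 active = significant combined selectivity score with lowered wild-type GFP, culture density cut under 30%, mutant RFP and density less affected; inactive = any of these conditions unmet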; also: one replicate is shown; some compounds called inactive have numbers as strong as hits
Vif TR-FRET = inhibitors of Vif binding to APOBEC3G peptide, primary screen, biochemical, TR-FRET, GST-Vif 1-94, biotin-A3G peptide, dose response retest (AID 1117319). TR-FRET GST-Vif / biotin-A3G peptide binding; higher % means a stronger effect; test concentration not given here; strong numbers were not always called active. inhibition, %; hits with a dose series show IC50 in µM. 260,000 tested, 0.57% active;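 active = above the screen mean plus three standard deviations and confirmed in dose response; inconclusive = results disagree or hit not tested in dose response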;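 also: Vif residues 1-94 fused to GST binding biotinylated APOBEC3G peptide 110-148; 0% = full assay without inhibitor and 100% = GST in place of GST-Vif; retest series ran down from 100 µM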
Calb FLC = C. albicans growth modulation with fluconazole. growth inhibition, % (test concentration not listed). AID 1979. C. albicans CaCi-2 (fluconazole-resistant clinical isolate) + fluconazole, Alamar Blue growth, 48 h. 300,000 tested, 0.57% active;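 active = most replicates above 75%; inconclusive = exactly half above 75%; inactive = most below 75%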;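 also: all wells also contain fluconazole at 8 µg/ml as a sub-toxic cotreatment; 0% = median of DMSO wells and 100% = median of geldanamycin control wells; wells of about 8 µL received 7.5 nL stock; the first replicate is given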
Bfl-1 A1 inh = inhibitors of the anti-apoptotic protein A1, read as caspase activation | MEF A1-2A-BIM cells, Caspase-Glo 3/7 luminescence, 3 h; percent of clofoctol response, vehicle zero | caspase activation, % (no concentration beside the values) | 330,000 tested, 0.066% active;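 active = over half of replicate activation scores above 10%, or exactly half above 10 with the replicate mean above 10; inconclusive = replicate mean below 10 yet half the replicates above 10; inactive = over half of replicates below 10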;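 also: wells of about 30 µL received 50 nL stock; many hits fall short of the cut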
Ecoli rRNA inh OD600 = also measured in Ecoli rRNA inh; calls as there; OD600 change, %; measured here: OD600 growth;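 optical density of the mix in the first replicate; 0 = DMSO median and -100 = no signal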
Ecoli rRNA inh RFP = also measured in Ecoli rRNA inh; calls as there; RFP signal change, %; measured here: RFP humanized mutant strains;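 first replicate; 0 = DMSO median and -100 = no signal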
* = called active by the depositor; ? = inconclusive; . = no result given; & = joins results of further samples. These rows are one share of the data. The share of hits here may be higher or lower than overall.

SMILES	AF4-AF9 inh	T cruzi inh	Beta cell apopt	RanGTP-Imp inh	Ecoli rRNA inh	Ecoli rRNA inh OD600	Ecoli rRNA inh RFP	Vif TR-FRET	Calb FLC	Bfl-1 A1 inh
Cc1cccc(-n2c(=S)[nH]c3c(oc4ccccc43)c2=O)c1	1.6	-2	3	1.7	.	.	.	.	?	0.5
Cc1c(-c2ccccc2)[n+](=O)c2c(n1[O-])CCCCC2	.	-5	-5	-1.7	.	.	.	0%	-2	-0.4
CN(C)CCCN(C(=O)c1ccc(S(=O)(=O)N2CCc3ccccc3C2)cc1)c1nc2ccc(F)cc2s1	1.6	25	62	1.0	-13	-3	3.4	.	-2	30*
COc1ccc(CN(C(=O)/C=C/c2ccccc2Cl)C2CCS(=O)(=O)C2)cc1 (stereo unspecified)	3.1	2	7	1.7	-17	-13	-1.8	22%	40	0.8
Cc1ccc(CNC(=O)Cn2c(=O)c3sccc3n(Cc3ccc([N+](=O)[O-])cc3)c2=O)cc1	.	21	0	1.6	.	.	.	2%	41	-0.1
Cc1ccc(-n2cc(CNCCCn3cccn3)c(-c3cccc(C)c3)n2)cc1	5.0	19	12	0.9	-15	-27	8.2	1%	2	0.3
O=C(Nc1ccccc1C(=O)N1CCCC1)c1ncoc1-c1cccc(Cl)c1	-0.3	5	-10	3.5	-12	-25	-2.6	.	14	0.0
Cn1c(C(=O)NCCN2CCc3ccccc3C2)cc2c(=O)n(C)c3ccccc3c21	-0.7	6	3	-2.5	-2	-31	-3.0	0%&-3%	7	-0.6
CCCN1CCC(=O)N([C@H](COc2ccccc2)CC(C)C)CC1	0.6	-12	4	?	5	17	7.9	.	-32	0.1
C/C(=N/NC(=O)CCc1ccccc1)c1ccc2c(c1)OCO2	0.6	-1	6	1.2	2	2	-1.0	2%	-7	-0.2
O=[N+]([O-])c1cc(C(F)(F)F)ccc1Sc1ccccn1	.	6	-9	-1.2	.	.	.	2%	-2	-0.1
Cc1cc2n(n1)C(c1cn(-c3ccccc3)nc1C)Nc1ccccc1-2 (stereo unspecified)	.	21	8	-3.1	.	.	.	-9%&3%	3	0.1
COC(=O)CSc1nc(N)nc(C)c1Br	.	10	-4	1.7	.	.	.	1%	-2	-0.1
COc1ccc(-n2c(-c3ccc(OC)c(OC)c3)n[nH]c2=S)cc1	-0.6	4	3	-2.3	14	2	-0.6	-1%	-10	1.5
COc1cc(/C=C2\C=CC(=O)O2)cc(OC)c1	2.6	-10	-5	?	2	0	-0.2	-5%	8	-0.2
COc1cccc(-c2ccc(=O)n(CC(=O)Nc3ccc(S(=O)(=O)NCC(C)C)cc3)n2)c1	-2.2	11	2	?	17	16	6.3	.	0	-0.2
CC[C@@H](C)[C@@H]1CN([C@@H](CN2CCC[C@H]2CN2C(N)=NC[C@H]2C(C)C)C(C)C)C(=N)N1CCCC1CCCC1	-0.2	.	-7	.	-36	-74	-14	-2%	.	0.1
COc1ccc(N/N=C(/C(C)=O)N2CCCc3ccccc32)cc1	20	28	-16	4.0	-14	1	-2.8	.	1	-0.3
O=C(CNCCC1=CCCCC1)Nc1ccccc1N1CCCCCC1	.	19	21	-0.4	-38	-44	1.0	19%	0	0.2
O=C(NC1CCCCCCC1)c1cccc(Cl)c1	-0.3	8	.	7.5	-5	-9	-2.1	.	-27	-0.5
NC(=O)CNC(=O)[C@@H]1CC2(CC(c3ccc(Cl)cc3)=NO2)CN1C(=O)c1ccc(Br)cc1 (stereo partly specified)	1.0	2	-13	3.5	-20	-24	5.1	9%	1	0.6
O=C(Nc1ccccc1-c1nnn(CC(=O)N2CCc3ccccc3C2)n1)C1CCC1	.	20	-6	-1.0	.	.	.	91µM*	3	0.1
COC(=O)C(Cc1ccc(O)cc1)NC(=O)CCNC(=O)c1ccco1 (stereo unspecified)	-8.1	-4	-3	-0.7	3	6	-2.9	-1%	2	-1.2
O=C(Nc1ccc2c(c1)OCCO2)NC12CC3CC(CC(C3)C1)C2	.	-13	5	0.1	.	.	.	?	-4	1.0
Cc1ccc(C2=NN(S(=O)(=O)c3ccccc3)C(c3ccco3)C2)cc1 (stereo unspecified)	6.3	.	11	.	.	.	.	-9%	.	0.7
COCCNC(=S)N=Nc1c(O)[nH]c2c(C)cc(C)cc12	-1.5	6	9	156*	13	8	-6.6	1%	-31	-0.3
Cc1ccc(CN2[C@@H](c3ccccc3)COCCS2(=O)=O)cc1	0.7	-6	6	-2.4	-20	-28	-18	.	0	-0.1
COc1cccc(COC(=O)CCNC(=O)c2ccc(Br)cc2)c1OC	-12	-9	-5	?	0	-12	-0.7	.	-1	0.7
Cc1cc(C(=O)CN2C(=O)C(=O)N(Cc3ccccc3)C2=O)c(C)n1-c1ccc2c(c1)OCCO2	-0.4	24	2	-0.1	5	10	4.8	-1%	-2	0.7
Cc1nnc(N2CCOCC2)c2nn(-c3ccccc3)c(C)c12	?	-10	-2	-3.9	8	15	1.6	1%	-7	0.5
Cc1ccccc1-c1nc(CN2CCCC2c2ccc(F)cc2)c(C)o1 (stereo unspecified)	6.4	-5	-4	2.5	-20	-17	2.6	1%	10	-0.3
CN(C)CCCN(Cc1ccccc1)C(=S)Nc1ccc(F)c(Cl)c1	-3.6	27	-12	-1.8	-46*	-29*	-12*	-8%	-4	0.1
O=C(Nc1nc2ccsc2c(=O)s1)c1ccc(Cl)cc1	-0.6	13	-4	-2.8	0	1	-1.1	-471%	1	-7.8
O=C(Nc1cccc(S(=O)(=O)N2CCOCC2)c1)C1CCN(S(=O)(=O)c2ccccc2)CC1	-2.2	.	-6	.	9	7	2.6	-3%	.	1.0
COc1ccc(S(=O)(=O)N2CCOCC2)cc1C(=O)Nc1ccon1	.	7	-2	4.3	.	.	.	16%	-11	0.3
CCOC(=O)N1CCC(c2nc(C)sc2C(=O)O)CC1	.	-3	-2	-2.5	.	.	.	6%	15	-0.7
Cc1ccc(NCc2nnc(SCC(N)=O)n2CCc2ccccc2)cc1	-22	6	.	?	-8	2	-1.5	7%	-5	.
Brc1ccc(CNc2ccc3ncccc3c2)cc1	2.3	35	30	-6.6	-29*	-17*	-2.6*	1%	55	-1.1
CC(=O)c1cccc(CN2CCCC(C(=O)Nc3cccc(-n4cccn4)c3)C2)c1 (stereo unspecified)	-2.4	37	-7	-2.8	2	-3	-0.1	4%	0	-0.5
COC(=O)c1ccc(CNC(=O)COC(=O)CCN2C(=O)C3CC=CCC3C2=O)cc1 (stereo unspecified)	-14	-12	-6	-1.9	7	13	-1.0	-3%	.	-0.6
CCN1C(=O)/C(=C/N2CC(C)CC(C)C2)SC1=S (stereo unspecified)	.	16	10	-6.3	.	.	.	68%	1	1.7
COCC(=O)n1nc(-c2ccc(Cl)cc2)nc1NCc1ccc(F)cc1	.	-14	-11	-4.5	6	12	3.4	6%	7	0.6
Cc1ccc(C(C(=O)NC2CCCCC2)N(CCC(C)C)C(=O)CNC(=O)c2ccco2)o1 (stereo unspecified)	.	-3	-4	4.0	.	.	.	3%	-2	0.1
Cc1cc(NC(=O)CN2CCCC(C)C2)no1 (stereo unspecified)	1.2	-7	.	7.8	17	20	2.7	-1%	28	-0.1
CN(C)S(=O)(=O)N1CCC(Oc2ccc(C(=O)N3CCCCCCC3)cc2)CC1	1.5	12	11	?	2	-5	5.9	.	-4	0.0
Cc1cccc2cc(CN(Cc3cccs3)C(=S)NCC3CCCO3)c(=O)[nH]c12 (stereo unspecified)	.	6	.	0.4	.	.	.	4%	3	-0.2
CSc1ncccc1-c1nc2ccccc2[nH]1	.	-7	4	0.2	.	.	.	-4%	9	-1.5
COC(=O)[C@H](CCSC)NC(=O)NC1CC1	1.7	-8	2	1.4	7	-9	-2.4	-1%	-6	-0.2
Nc1ncnc(Nc2ccccn2)c1[N+](=O)[O-]	-0.2	-2	-2	2.0	7	4	-5.0	-3%	-1	-0.6
COC(=O)C1=NN(c2cccc(C)c2)C2C(=O)N(c3ccccc3OC)C(=O)C12 (stereo unspecified)	.	1	6	0.2	.	.	.	.	-11	0.6
COc1ccc(CN2CCN(C(=O)c3cccnc3)CC2)cc1Br	.	-13	1	-3.7	.	.	.	31%&-4%	-1	0.5
CCN(CC)S(=O)(=O)N1CCC(C(=O)NCCC2=CCCCC2)CC1	-1.3	0	-5	-2.2	5	3	5.7	3%	-4	0.1
O=C(Oc1cccnc1)c1cc(S(=O)(=O)N2CCCCC2)ccc1Cl	.	-12	-2	-4.5	.	.	.	-2%	-16	0.2
O=[N+]([O-])c1cc([N+](=O)[O-])c(Oc2cc(F)cc(F)c2)cc1NN1CCCCC1	4.9	.	16	.	3	5	0.8	.	.	0.2
CC(C)c1ccc2c(c1)C(c1ccc(N3CCOCC3)cc1)=NNC(c1cccs1)=N2	.	?	13	-2.2	.	.	.	2%	14	0.4
CC1=C(C)CC(C(=O)NC2CCCC2)C(C(=O)O)C1 (stereo unspecified)	-0.2	-8	.	1.3	16	11	0.4	.	-10	.
O=Cc1ccc(-c2nc3ccccc3s2)o1	0.9	3	0	8.5	8	1	-2.7	-2%	4	-7.6
O=C(Nc1ccc(F)c([N+](=O)[O-])c1)C1CC(=O)N(Cc2ccccc2)C1 (stereo unspecified)	0.3	11	-3	2.8	10	13	2.3	-13%	-2	-0.5
COc1ccccc1N1CCN(C(=O)c2cc(-c3ccco3)on2)CC1	-6.7	-8	.	-0.9	-3	1	1.4	5%	0	0.8
O=[N+]([O-])c1cccc(NC(=S)N2CCc3ccccc3C2)c1	0.9	-6	2	-2.6	-31*	-19*	0.4*	.	-4	0.6
The list goes on.
SMILES	AF4-AF9 inh	T cruzi inh	Beta cell apopt	RanGTP-Imp inh	Ecoli rRNA inh	Ecoli rRNA inh OD600	Ecoli rRNA inh RFP	Vif TR-FRET	Calb FLC	Bfl-1 A1 inh
Cc1ccc(-c2cc(C(=O)N/N=C/c3c(C)nn(-c4ccccc4)c3C)[nH]n2)cc1	.	18	.	5.3	.	.	.	3%	-3	.
COc1cccc(CC2(CO)CCCN(C/C=C/c3ccccc3OC)C2)c1 (stereo unspecified)	-8.4	63*	3	4.8	-6	-17	6.4	5%	-29	-1.7
Cc1nc(/N=C\N(C)C)sc1C(=O)Nc1ccccc1	.	-6	6	4.0	.	.	.	?	0	-1.1
O=C(NCc1ccccc1C(F)(F)F)c1cccc2c1C(=O)c1ccc(N3CCOCC3)cc1S2(=O)=O	-3.3	.	25	.	9	8	0.1	.	.	0.5
NS(=O)(=O)c1ccc(NNC(=O)c2ccccc2C(=O)O)cc1	-3.8	13	-3	5.1	14	-2	-3.6	.	-16	1.2
